TRPML1 inh: blocks the human TRPML1 channel | TRPML1-inducible cells, Ca2+ dye fluorescence, FDSS; stronger effect = lower value; inhibition of EC80 agonist-evoked calcium signal | activity change, negative = inhibition, % (concentration not given with the values) | 390,000 tested, 0.02% active; in the data active means activity change below about -50%; inconclusive means about -30% to -50%; inactive means above about -30%;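 also: stimulus is agonist 54-4 at its EC80 concentration; % is scaled to controls: 0 for no effect and ±100 for the full control effect; compound concentration not given in the record; the text of the record puts the active cut at -80%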
Target sequence (Q9GZU1 whole entry, looked up): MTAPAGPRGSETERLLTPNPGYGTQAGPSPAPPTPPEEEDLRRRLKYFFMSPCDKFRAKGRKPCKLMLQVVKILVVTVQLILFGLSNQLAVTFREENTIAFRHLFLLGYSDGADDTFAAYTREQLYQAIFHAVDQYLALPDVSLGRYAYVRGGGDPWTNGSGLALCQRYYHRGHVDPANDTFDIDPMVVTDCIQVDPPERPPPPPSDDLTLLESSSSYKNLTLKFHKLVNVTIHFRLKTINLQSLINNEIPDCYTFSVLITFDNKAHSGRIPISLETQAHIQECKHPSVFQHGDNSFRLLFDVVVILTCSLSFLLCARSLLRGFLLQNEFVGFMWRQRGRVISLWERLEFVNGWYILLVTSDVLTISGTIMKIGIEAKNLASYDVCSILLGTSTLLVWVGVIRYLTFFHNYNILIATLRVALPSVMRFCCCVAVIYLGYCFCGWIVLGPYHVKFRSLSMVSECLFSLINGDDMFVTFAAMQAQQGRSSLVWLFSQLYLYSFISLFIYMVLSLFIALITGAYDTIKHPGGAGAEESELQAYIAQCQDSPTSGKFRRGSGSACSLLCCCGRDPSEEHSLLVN
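Tet-induced TRPML1-DL cells loaded with Ca8 no-wash calcium dye were read kinetically on FDSS. Compound addition was followed by EC80 agonist 54-4 (4 uM final); inhibition was read over 110 s.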
TRPML1 agonist: activates the human TRPML1 channel; Q9GZU1; TRPML1-expressing cells, Ca2+ dye fluorescence, FDSS; host cell line not named in the record; reference of the full effect not given here; activation, % (no concentration beside the values); 410,000 tested, 0.12% active; AID 624414; in the data active = activation above about 50%; inconclusive = about 30% to 50%; inactive = below about 30%; also: 0% is about no effect; the text of the record puts the active cut at 80%
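Tet-induced TRPML1-DL cells, 1,500 per well, cultured overnight, were loaded with a no-wash Ca2+ dye for 45–90 min. Calcium fluorescence was recorded on the FDSS for 110 s after compound addition, before the EC80 agonist (4 uM 54-4) was added.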
TRPV1 PAM: enhances activation of the human vanilloid receptor TRPV1; TRPV1-expressing cells, Fluo-8 calcium influx, capsaicin EC20 potentiation; host cell line not named in the record; control for the full effect not named in the record; potentiation, % at 8.33 µM; 320,000 tested, 0.02% active; active means potentiation above 80%; inconclusive means 30% to 80%; inactive means below 30%; also: 0% is about no effect
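Fluo-8 calcium influx in TRPV1-expressing cells, kinetic read (ex 480/em 520 nm). Compound added and read 3 min for agonist activity, followed by capsaicin at EC20 final and 2 min further read for enhancement.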
Six1-Eya2 blk: blocks human Six1 binding to Eya2; Q15475+O00167; AlphaScreen GST-Six1/His-Eya2 binding, biochemical; stronger effect = lower value; control for the full effect not named in the record; activity change, % (no concentration beside the values); 360,000 tested, 0.56% active; AID 651725; in the data active = activity change below about -65%; inconclusive = about -30% to -65%; inactive = above about -30%; also: % is scaled to controls: 0 for no effect and ±100 for the full control effect; compound concentration not given in the record
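Compounds are tested against tagged Six1 and Eya2 proteins bridged by glutathione donor and nickel acceptor beads; after a one-hour incubation at 37 °C without light, AlphaScreen emission is recorded.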
D2 potentiator: human D2 receptor positive allosteric modulation; P14416; DiscoveRx D2 beta-arrestin cells, luminescence, 90 min; 100% = 57 uM dopamine signal; potentiation, % (no concentration beside the values); 360,000 tested, 0.23% active; AID 624464; active = potentiation of 50% or more; inconclusive = 30% to 50%; inactive = 30% or less;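 also: compound concentration not given in the record; tested on top of an EC20 dose of dopamine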
Target sequence (P14416 whole entry, looked up): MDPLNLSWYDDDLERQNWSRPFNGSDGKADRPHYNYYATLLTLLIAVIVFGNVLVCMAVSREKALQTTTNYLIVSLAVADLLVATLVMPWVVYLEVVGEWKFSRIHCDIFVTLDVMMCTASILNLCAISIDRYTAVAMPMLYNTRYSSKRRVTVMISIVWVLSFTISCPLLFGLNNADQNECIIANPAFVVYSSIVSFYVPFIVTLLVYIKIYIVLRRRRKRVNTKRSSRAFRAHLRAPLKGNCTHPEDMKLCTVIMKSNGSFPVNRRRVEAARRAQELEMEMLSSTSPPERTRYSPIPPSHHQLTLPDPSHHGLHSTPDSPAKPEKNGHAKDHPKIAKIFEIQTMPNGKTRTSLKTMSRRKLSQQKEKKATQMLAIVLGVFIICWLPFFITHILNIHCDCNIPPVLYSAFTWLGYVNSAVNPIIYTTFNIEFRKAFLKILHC
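PathHunter D2 cells, attached overnight at 37 deg C, received compound in DMSO plus dopamine at EC20 (50 nM final) for 90 min at 37 deg C. Beta-arrestin recruitment was read as luminescence after 1 h with detection reagent at ambient temperature.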
CtBP-E1A blk: inhibitors of CtBP/E1A interaction; AlphaScreen GST-E1A/His-CtBP binding, 1536-well; stronger effect = lower value; control for the full effect not named in the record; activity change, % (no concentration beside the values); 340,000 tested, 0.49% active; AID 651724; in the data active means activity change below about -65%; inconclusive means about -30% to -65%; inactive means above about -30%; also: % is scaled to controls: 0 for no effect and ±100 for the full control effect; compound concentration not given in the record
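AlphaScreen with 125 nM GST-E1A and 125 nM His-CtBP (5X stocks) in Tris pH 8.0, 300 mM NaCl, BSA, Tween 20, TCEP. Compounds preincubated 2 h at 37 deg C, then glutathione donor/nickel acceptor beads added for 1 h at 37 deg C in dark.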
Starred values were filed as active, the others as inactive; ? = inconclusive; / = no result given; & = joins results of further samples.

SMILES	TRPML1 inh	TRPML1 agonist	TRPV1 PAM	Six1-Eya2 blk	D2 potentiator	CtBP-E1A blk
Cc1cc(C(=O)NNC(=O)c2cccc(N(C)C)c2)c(C)o1	23	-0.1	5	-2	5	0
CCCCOc1ccc(C(C)(O)CCN2CCOCC2)cc1 (centres undefined)	-1	0.2	6	6	4	0
CCN(CC)CCCN1C=C2C(=O)C(C)(OC(=O)C3CCCC3)C(=O)C(c3ccccc3)=C2C=C1CCCC(=O)OC (centres undefined)	3	0.7	12	-7	-5	-3
C=CCN=C1NN=C(c2ccc3c(c2)OCCO3)CS1	-17	1.1	0	-14	-26	-6
O=C(NCc1ccc2c(c1)OCO2)C1CC(=O)N(CCc2ccc(Cl)cc2)C1 (centres undefined)	-4	-0.2	-3	-5	-3	7
O=C1O[C@@H](c2ccccc2)C[C@@H](O)[C@H](O)CCc2ccccc21	/	-0.1	/	3	/	9
COc1ccccc1OCC(=O)N1CCCCCC1	9	-0.4	/	-16	-8	-1
COc1ccc(NC(=O)Cc2c(C)n(C(=O)c3ccc(Cl)cc3)c3ccc(OC)cc23)cc1	-3	-0.2	22	-2	-2	0
CC(=O)c1ccc(N=Nc2ccc(N(C)C)cc2)cc1	-21	-0.4	-3	?	-7	-13
CN1CCCN(S(=O)(=O)c2ccc3c(c2)OCCO3)CC1	16	-0.3&-0.2	?	1	-6	5
CCC(C)(C)n1nnnc1CN1CCC(c2nc3ccc(C)cc3[nH]2)CC1	63	-0.5	/	-2	-7	-7
CCC(NC(=S)NCc1ccc(F)cc1)c1ccc(C)cc1 (centres undefined)	-7	-0.1	-5	-5	-9	0
COc1cc(/C=N/n2c(SC)nnc(C(C)(C)C)c2=O)ccc1O	5	6.8	-9	-2	-2	2
CS(=O)(=O)c1nc(S(=O)(=O)c2ccc(Cl)cc2)c(N2CCC(O)CC2)s1	18	-0.5	-14	10	-5	/
Cc1ccc(-c2nnn(CC(=O)N3CCCc4ccccc43)n2)cc1	-1	0.7	3	0	-1	2
Cc1c(CCC(C)C)c(-n2ccnc2C)n2c(nc3ccccc32)c1C#N	8	-0.8	-19	11	11	-6
COc1ccc(S(=O)(=O)N2CCN(c3ccccc3)CC2)cc1OC	-17	-0.2	/	-12	7	-17
Clc1ccc(Cn2ncc3c(NCCN4CCOCC4)ncnc32)cc1	-3	-0.1	16	17	-6	0
Cc1ccc(C(=O)NNC(=O)c2cccc(Br)c2)cc1	-11	-0.3	-1	-1	-3	0
O=C(Cn1ncc(Cl)c(Cl)c1=O)N1CCN(Cc2ccccc2)CC1	-5	-0.2	1	-7	-16	8
O=C(O)C1CCCN1c1nc(Cl)ccc1[N+](=O)[O-] (centres undefined)	5	0.5	/	0	-4	11
CC1NC(=O)COC1c1ccccc1 (centres undefined)	16	0.2	/	2	-12	-10
COc1ccc2oc(=O)c(/C(C)=N/NC(=O)c3ccncc3)cc2c1	?	-0.6	-6	-21	-8	-13
COc1ccc(CN2C(=O)c3ccccc3C2C(=O)NC2CCCC(C)C2C)c(OC)c1 (centres undefined)	-9	0.7	-7	1	-17	/
CC[C@@]12C(=O)N(c3cccc(F)c3)C(=O)N1[C@H](c1ccc(Br)cc1)[C@@H]1C(=O)N(C(C)(C)C)C(=O)[C@@H]12	-1	0.1	-1	5	-3	7
COc1cc(/C=C/C(=O)OCC(=O)Nc2ccc(S(N)(=O)=O)cc2)ccc1O	/	/	9	-6	-8	-4
CCn1nc(C(=O)O)c(=O)c2cc3c(cc21)OCO3	-3	0.0	1	12	-7	-13
O=C(N=C1SC2CS(=O)(=O)CC2N1c1ccc(Cl)cc1Cl)C1CC1 (centres undefined)	12	-0.3	25	2	5	2
CSCCOC(=O)C1=C(C)Nc2ccc(C)cc2S1	-14	0.5	2	-29	15	-22
COc1cc(NC(=S)N2CCN(C)CC2)cc(OC)c1	-3	-0.7	-14	-11	-2	/
O=C(CCCCN1CCCCC1)c1ccccc1	9	1.3	/	-1	-2	-3
CC(=O)c1sc(NC(=O)COc2ccc(Cl)cc2C)nc1C	-14	-0.7	5	-2	-12	-12
COc1ccc(OC)c(C2/C(=C(\O)c3ccc4c(c3)OCCO4)C(=O)C(=O)N2CC2CCCO2)c1 (centres undefined)	13	-0.3	5	-7	12	5
Cn1c(=O)c(C(=O)Nc2ncccn2)c(O)c2ccccc21	1	-0.6	27	1	-4	-1
O=C(O)c1cccc(CSc2ncn[nH]2)c1	-9	0.6	-11	2	3	4
CCCCNC(=O)c1ccc2nc(CC)c(N(CCC(C)C)CCN(C)C)n2c1	19	0.2	/	3	-20	1
COC[C@@H]1CCCN1c1ccc2c(c1)O[C@H](COCc1ccccc1)CN([C@@H](C)c1ccccc1)S2(=O)=O	/	0.1	/	4	/	-20
O=C(O)CC(NC(=O)COc1ccc(Cl)cc1Cl)C(=O)O (centres undefined)	22	0.2	14	8	-17	9
Cc1cccc(C)c1NC(=O)CSc1nc2c([nH]1)c(=O)n(C)c(=O)n2C	14	0.5	-3	1	-11	0
Cn1c(=O)c2c(nc(SCC(=O)NCc3ccc4c(c3)OCO4)n2Cc2ccc(Cl)cc2)n(C)c1=O	-25	-0.3	3	-14	-4	-5
Cn1cccc1Cc1nnc(SCC(=O)N2CCCCCC2)n1CCc1ccccc1	-1	0.0	-9	-5	-2	-2
CCCCOc1ccc(C(O)(CCN2CCOCC2)c2ccccc2)cc1 (centres undefined)	0	1.0	12	1	-5	/
C[C@@H]1NC(=O)c2cc([N+](=O)[O-])cc(I)c2NCCCC[C@@H](C(N)=O)NC(=O)[C@H](CCC(=O)O)NC1=O	-5	-0.6	7	?	-7	/
CCc1cc(SC#N)cc(CC)c1NC(=O)CCl	4	0.6	22	-18	-17	-16
CCCNC(=O)NNC(=O)c1cc(-c2ccc3c(c2)OCO3)nc2ccccc12	-3	0.0	?	-3	-14	-6

Profiles, looked up by structure. Order of screens: TRPML1 inh | TRPML1 agonist | TRPV1 PAM | Six1-Eya2 blk | D2 potentiator | CtBP-E1A blk
Cn1c(=O)c(C(=O)Nc2ncccn2)c(O)c2ccccc21 in the list: 1 | -0.6 | 27 | 1 | -4 | -1
Cn1cccc1Cc1nnc(SCC(=O)N2CCCCCC2)n1CCc1ccccc1 in the list: -1 | 0.0 | -9 | -5 | -2 | -2

(list continues)
SMILES	TRPML1 inh	TRPML1 agonist	TRPV1 PAM	Six1-Eya2 blk	D2 potentiator	CtBP-E1A blk
COc1ccc(NC(=O)c2cc(CC(C)C)nc3ccccc23)cc1	-16	0.1	-11	-6	-49	/
O=C1C=C(NCc2ccco2)CC(c2ccc(Cl)cc2)C1 (centres undefined)	2	-0.4	2	-4	-26	-2
Cc1cnc(C(=O)N2CCN(c3ccc(C(F)(F)F)cn3)CC2)cn1	-11	-0.3	-5	9	-7	9
COC(=O)c1sccc1NC(=O)COc1ccccc1Cl	-7	3.3	-7	1	-4	18
Cc1ccc(CN2CCN(C(=O)CCc3ccccc3)CC2)cc1	0	0.3	-3	1	-13	1
Cn1cc(CN2CCC(n3nccc3NC(=O)Cc3ccccc3)CC2)cn1	-12	0.1	-12	0	-21	11
COc1ccc(C(=O)NC(=S)N2CCOCC2)cc1[N+](=O)[O-]	35	0.7	-6	5	-12	6
Cc1ccc(NC(=O)CCc2ccc(S(=O)(=O)N3CCOCC3)cc2)c(O)c1	-14	-0.9	/	7	0	3
O=C(OCC(=O)N1CCN(c2ccccc2)CC1)c1cc(F)c(F)cc1Cl	-4	0.0	/	-3	-9	-3
O=C(COC(=O)Cc1ccsc1)NNC(=O)c1ccccc1	9	-0.3	/	-3	15	/
COc1cccc(C(=O)Nc2ccc(S(=O)(=O)N3CCN(C)CC3)cc2)c1	-7	0.9	12	-11	-2	-9
CC1CC(C)CN(CCCNC(=O)c2cn(C)c3ccc(S(=O)(=O)N4CCCC4)cc3c2=O)C1 (centres undefined)	-10	-0.6	-2	-4	-9	6
CCCc1nc2ccccc2c(C(=O)OCC(=O)c2ccc3c(c2)NC(=O)CO3)c1CC	-1	-0.2	-12	-1	4	1
COc1ccc(C(C(O)C(=O)c2c[nH]c3ccccc23)N2CCN(c3ccccc3)CC2)cc1 (centres undefined)	0	6.2	3	-21	-9	-1
CCOc1ccc(S(=O)(=O)N=C(c2ccccc2)N2CCOCC2)cc1	18	2.0	/	-11	-3	-24
N=C1C(c2ccccc2)=C(O)CN1c1cccc(S(N)(=O)=O)c1	25	0.5	11	4	-2	1
COc1ccccc1CNc1nc(Nc2ccccc2Cl)c2sccc2n1	/	-0.6	/	-4	-13	-5
CCOC(=O)c1coc(C(=O)OCC)c1C(=O)OCC	-3	-0.6	/	8	-2	5
COc1cccc(NC(=O)COc2ccccc2C(N)=O)c1	6	-0.5	-1	1	-15	0
CCOC(=O)C1=CC(=O)CC(C)(C)O1	-1	0.6	/	14	-12	6
Cc1ccc(NC(=O)c2nc[nH]c2C(=O)N2CCOCC2)c(C(=O)c2ccccc2)c1	6	-0.2	-4	-6	-6	-7
COC(=O)NCC(C)OC(=O)Nc1ccc(Cl)cc1 (centres undefined)	13	-0.3	-7	0	-9	-2
CCOC(=O)Nc1sc2c(c1C(=O)OCC)CCC2	9	0.1	-2	9	-14	5
N/C(CSc1ccc(Cl)cc1)=N\NC(=O)c1ccncc1	-9	0.9	-17	7	-3	-20
Cc1ccc(-c2nc(SCC(=O)NCC3CCCO3)c(-c3ccc(C)cc3)[nH]2)cc1 (centres undefined)	-8&-3	-0.7&0.5	-15	2	-12	3
COc1ccccc1N1CCN(c2ccc3cc(S(=O)(=O)N4CCCCC4)ccc3n2)CC1	-19&-15	96*	2	5	-13	9
O=C(/C=C/c1ccc2c(c1)OCO2)NCc1ccc(F)cc1	-16	1.6	-16	3	-6	6
O=C(/C=C\Nc1ccc2c(c1)OCO2)c1ccc(Cl)s1	-13	0.3	-4	-5	-5	8
O=C(Nc1cccc(S(=O)(=O)N2CCCCC2)c1)c1ccc(S(=O)(=O)C(F)F)cc1	-14	-0.2	-14	-20	2	-8
COc1ccc(-c2nc(CS(=O)CC(=O)NCc3ccc(F)cc3)c(C)o2)cc1 (centres undefined)	4	-0.8	-2	1	-19	-3
C=CCn1c(SCC(=O)Nc2ccc(Br)cc2)nc(O)c(CC)c1=O	7	0.1	22	0	-8	-17
COc1ccc2sc(SCCCS(=O)(=O)O)[n+](CCCS(=O)(=O)[O-])c2c1	75	-0.4	-16	-6	3	-13
O=C(CN1C(=O)NC(CCc2ccccc2)C1=O)N1CCCCCC1 (centres undefined)	-3	0.0	/	6	-4	4

In the list so far, 5 have two or more sulfur atoms:
SMILES	TRPML1 inh	TRPML1 agonist	TRPV1 PAM	Six1-Eya2 blk	D2 potentiator	CtBP-E1A blk
CS(=O)(=O)c1nc(S(=O)(=O)c2ccc(Cl)cc2)c(N2CCC(O)CC2)s1	18	-0.5	-14	10	-5	/
O=C(N=C1SC2CS(=O)(=O)CC2N1c1ccc(Cl)cc1Cl)C1CC1 (centres undefined)	12	-0.3	25	2	5	2
CSCCOC(=O)C1=C(C)Nc2ccc(C)cc2S1	-14	0.5	2	-29	15	-22
O=C(Nc1cccc(S(=O)(=O)N2CCCCC2)c1)c1ccc(S(=O)(=O)C(F)F)cc1	-14	-0.2	-14	-20	2	-8
COc1ccc2sc(SCCCS(=O)(=O)O)[n+](CCCS(=O)(=O)[O-])c2c1	75	-0.4	-16	-6	3	-13

Compound activity deposited in PubChem by National Center for Advancing Translational Sciences (NCATS).
